Ba CapD inh: CapD enzyme inhibition. 0.23% of 140,000 active. z-score (test concentration not listed). purified CapD enzyme, fluorescence intensity read-out; stronger effect = lower value; some hits fall short of the stated cut;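 active = z-score under -4 in either of two replicates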;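 note: stock transfer was 100 nL into about 40 µL; score is relative to mean and spread of the plate; one replicate is shown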
AID504770: E. coli YBA685 growth inhibition, screen for V. cholerae RctB inhibitors; E. coli YBA685 rctB-dependent plasmid, OD600 growth, 3 h; stronger effect = lower value; AID 504770; z-score (concentration not given with the values); 0.27% of 130,000 active;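 active = z-score under -2 on both plates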;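 note: wells of about 30 µL received 100 nL stock; score is relative to mean and SD of the test wells; the first replicate is given; strong numbers were not always called active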
* hit, by the source's call; & = joins results of further samples.

`CC(=NCCc1c(C)[nH]c2ccccc12)c1c(C)[nH]n(-c2nc3ccccc3s2)c1=O` gave Ba CapD inh -0.825 and AID504770 0.85.
`COCCn1c(N)c(N(Cc2ccccc2)C(=O)C2CC3C=CC2C3)c(=O)[nH]c1=O` (centres undefined) gave AID504770 -0.5.
For CCOC(=O)C1=C(C)N=c2s/c(=C/c3cccn3-c3ccc([N+](=O)[O-])cc3)c(=O)n2C1c1cccc(OC)c1 (centres undefined) the results were Ba CapD inh -0.475.
Screening CCOC(=O)c1c(N)sc2c1CCCCC2 returned Ba CapD inh -0.91 and AID504770 -0.85.
`CC1CN(C(=O)COC(=O)CC2c3ccccc3CCN2S(=O)(=O)c2ccccc2)CC(C)O1` (centres undefined) gave AID504770 1.1.
Screening O=c1c2ccccc2nc(SCc2ccc3c(c2)OCO3)n1-c1ccccc1 returned Ba CapD inh 2.21 and AID504770 0.25.
`CCOC(=O)c1cc(NC(=O)N(CC)C2CCCCC2)c(C)nc1C` gave AID504770 0.05.
Screening O=C(c1cn(Cc2ccccc2)c2ccccc12)C1CC1 returned Ba CapD inh -0.855 and AID504770 2.3.
Screening COc1ccc(-c2cc3cc(OC)c(OC)cc3c(Cc3ccc(OC)c(OC)c3)n2)cc1 returned Ba CapD inh 4.33.
For Cc1ccc2c(CC(=O)OCc3cc(Cl)cc4c3OCOC4)coc2c1 the results were AID504770 0.6.
For COc1cccc(NS(=O)(=O)c2ccc(CN3C(=O)c4cccnc4C3=O)cc2)c1 the results were Ba CapD inh 0.205 and AID504770 -0.75.
Screening CC(C)n1c(CN2CCN(c3cccc(Cl)c3)CC2)nc2c1c(=O)n(C)c(=O)n2C returned Ba CapD inh 0.345 and AID504770 0.5.
Screening CCOC(=O)c1c(NC(=O)Cc2ccc(OC)cc2)sc(C(=O)Nc2cc(C(F)(F)F)ccc2Cl)c1C returned Ba CapD inh 0.355.
`Cc1c(NC=C(C#N)C#N)c(=O)n(-c2ccccc2)n1C` gave AID504770 0.7.
For Cc1ccc(-c2csc(C3=C(O)CN(C4CCCC4)C3=N)n2)cc1 the results were AID504770 1.2.
Cc1nnsc1C(=O)OCc1cc(F)cc(F)c1 was read as Ba CapD inh -0.405 and AID504770 -0.95.
`Cc1[nH]n(-c2cccc(Cl)c2)c(=O)c1N=O` gave Ba CapD inh -2.34 and AID504770 2.1.
Screening Cc1ccc(-n2c(-c3ccccc3)cc3c2CC/C(=C\N(C)C)C3=O)cc1 returned Ba CapD inh 3.13.
For O=c1[nH]cc(NCc2ccccc2)c(=O)[nH]1 the results were Ba CapD inh 0.69 and AID504770 0.
`CC1(C)CC(=O)C2=C(C1)OC(N)=C(C#N)C2c1ccccc1OC(=O)N1CCOCC1` (centres undefined) gave Ba CapD inh -0.255.
For Cc1ccc(C(O)c2nccn2C)o1 (centres undefined) the results were Ba CapD inh 0.46 and AID504770 -0.45.
Screening Cc1cc(C)c(N=Cc2nc(-c3ccccc3)oc2O)c(C)c1 returned Ba CapD inh -1.34 and AID504770 -0.65.
CCOC(=O)C1C(=O)C=C(Nc2sc3c(c2C#N)CCCC3)CC1c1cccc(OC)c1 (centres undefined) was read as Ba CapD inh 1.95 and AID504770 0.25.
Screening CC1(C)CC(=O)c2cnc(NC3OC(=O)c4ccccc43)nc2C1 (centres undefined) returned Ba CapD inh 0.19 and AID504770 -1.25.
`C=CCN(CC=C)S(=O)(=O)c1ccc(NC(=O)c2cccs2)cc1` gave Ba CapD inh 0.8 and AID504770 -0.55.
Screening CCNC(=O)CN1C(=O)COc2ccc(C)cc21 returned AID504770 -0.15.
Screening COc1ccc(C(c2c(C)n(C)n(-c3ccccc3)c2=O)c2c(C)n(C)n(-c3ccccc3)c2=O)cc1 returned Ba CapD inh 0.24.
Screening N#Cc1cc2ccccc2oc1=O returned Ba CapD inh 27.4.
Screening COc1ccc(OC)c(NC(=O)CC2C(=O)NCCN2C(=O)C(F)(F)F)c1 (centres undefined) returned Ba CapD inh -0.515 and AID504770 -0.9.
For NC(CO)C12CC3CC(CC(C3)C1)C2 (centres undefined) the results were Ba CapD inh -1.2 and AID504770 2.5.
`CSc1sc(C(=O)NC(=O)NCc2cccnc2)c(C)c1-c1ccon1` gave Ba CapD inh 3.61 and AID504770 -1.
For CC(=O)Nc1ccc(NC(=O)COC(=O)C2CCCCC2)cc1 the results were Ba CapD inh -0.155 and AID504770 -1.25.
Screening CCCS(=O)(=O)c1ccc2nc(NC(=O)OC)[nH]c2c1 returned Ba CapD inh 0.28.
`COc1ccc(C2C3=C(CC(C)(C)CC3=O)N(C)C3=C2C(=O)CC(C)(C)C3)cc1` gave Ba CapD inh -0.865 and AID504770 -1.
Screening CC1(C)C2CCC1(C)C(NC(=O)C1CCCCC1)C2 (centres undefined) returned Ba CapD inh -0.32.
`Cc1c(CCNS(=O)(=O)c2ccc(Br)cc2)c2ccccc2n1Cc1ccccc1` gave Ba CapD inh -0.245 and AID504770 0.05.
C[C@]12CC=C(C#N)[C@@]1(C)CC=C2C#N was read as Ba CapD inh 0.53 and AID504770 0.
Screening Cc1cccc(C(=O)OCC(=O)NC2CCCC(C)C2C)c1 (centres undefined) returned Ba CapD inh 0.665 and AID504770 -0.35.
`CCOc1cc(C(=O)NCc2ccc3c(c2)n(C)c(=O)n3C)cc(OCC)c1OCC` gave AID504770 -0.6.
Cc1ccc(C2C(C#N)=C(N)OC(C3CC3)=C2C#N)cc1 (centres undefined) was read as Ba CapD inh -0.16 and AID504770 0.45.
For Cc1ccc(NC(=O)c2ccc(-c3ccc([N+](=O)[O-])cc3)o2)cc1-c1nc2ncccc2o1 the results were Ba CapD inh 0.53.
`COc1ccc(-c2nc(-c3ccccc3)nc(N3CCOCC3)c2C#N)cc1` gave Ba CapD inh 0.995.
For COc1cccc(-c2cc(C(=O)NCC(C)C)no2)c1 the results were Ba CapD inh -0.29 and AID504770 -0.7.
For Cn1cc(I)c(C(=O)n2cc(Br)cn2)n1 the results were Ba CapD inh 0.18 and AID504770 0.6.
For CCc1ccccc1NC(=O)Cc1ccc(Br)cc1 the results were Ba CapD inh 0.51 and AID504770 0.75.
CCN1CCSc2ccc(C(=O)Nc3c(F)c(F)c(F)c(F)c3F)cc21 was read as Ba CapD inh 23.8 and AID504770 -1.3.
CS(=O)(=O)N(CC(=O)N1CCc2ccccc2C1)c1ccccc1 was read as Ba CapD inh 0.305 and AID504770 0.7.
Screening N#Cc1cc(-c2ccccc2)oc1NC(=O)c1ccccc1C(F)(F)F returned Ba CapD inh 84.9.
Screening N#CCc1nn(-c2ccccc2)c(/N=C/c2cc(Cl)cc(Cl)c2O)c1C#N returned Ba CapD inh 0.015 and AID504770 -0.2.
Cn1nc(-c2ccccc2)c(/C=N/O)c1Sc1ccc(C(C)(C)C)cc1 was read as Ba CapD inh -0.765.
C=CCNC(=O)Nc1c[nH]c2ccccc2c1=O was read as AID504770 -1.45.
CCN(CC)S(=O)(=O)c1cccc(C(=O)Oc2cccc(-c3cnc4ccccc4n3)c2)c1 was read as Ba CapD inh 0.155 and AID504770 0.45.
CSc1ccc(Cl)c(C(=O)OCC(=O)N(C)c2ccccc2)c1 was read as Ba CapD inh -1.18 and AID504770 1.5.
`CCOc1cc2[nH]c(=O)n(CCCC(=O)N(C)Cc3ccccc3)c(=O)c2cc1OCC` gave Ba CapD inh 34.2 and AID504770 -0.7.
`CSc1ccc(CCNC(=O)C2CCCN(c3ncnc4c3nc3n4CCCCC3)C2)cc1` (centres undefined) gave Ba CapD inh 0.28 and AID504770 -0.7.
For Clc1ccccc1-c1nnc(C(c2ccccc2)N2CCC3(CC2)OCCO3)o1 (centres undefined) the results were Ba CapD inh 0.44 and AID504770 -0.05.
C/C(=N\NC(=O)C1=NNC(=O)C1C)c1cccs1 (centres undefined) was read as Ba CapD inh -2.06 and AID504770 0.35.
For COc1cc(C(=O)N2c3ccccc3-c3c(ssc3=S)C2(C)C)cc(OC)c1OC the results were Ba CapD inh -0.19.
For Cc1ccc(S(=O)(=O)N(C)C(C)C(O)c2ccccc2)cc1 (centres undefined) the results were Ba CapD inh -0.17 and AID504770 -1.15.
For CC(=O)C1=NN(c2cccc(Cl)c2C)C2(S1)SC(c1ccc(C)cc1)(c1ccc(C)cc1)c1ccccc12 (centres undefined) the results were Ba CapD inh -0.395.
Cc1ccc2nc(-c3ccccc3)cc(C(=O)Nc3ccccc3)c2c1 was read as Ba CapD inh 1.7 and AID504770 2.05.
`CCc1ccc(Nc2cc(C(=O)NCC(OC)OC)c3ccccc3n2)cc1` gave Ba CapD inh 1.66 and AID504770 -0.05.
`CCOC(=O)c1sc(N2N=C(C)CC2=O)nc1C` gave AID504770 -0.45.
Cc1c(NC(=O)OCCSc2nc(N(C)C)nc(N(C)C)n2)sc(=S)n1C was read as Ba CapD inh -0.165.
Cc1cccc2sc(NC(=O)CN3CSCC3=O)nc12 was read as AID504770 -0.3.
Screening O=S(=O)(NC1Cc2ccccc2C1)c1ccc(-c2csnn2)cc1 returned Ba CapD inh 0.58 and AID504770 -0.25.
CCOC(=O)Cn1nc[n+]2[nH]c(C)cc(=O)c12 was read as AID504770 -0.15.
O=C(O)c1ccc(-c2ccc(/C=C3\NC(=O)N(Cc4ccc(Cl)cc4)C3=O)o2)cc1Cl was read as Ba CapD inh 1.32.
Screening CCOC(=O)N1CCN(C(=O)c2ccc(Cn3c(=S)[nH]c4ccc(Br)cc4c3=O)cc2)CC1 returned Ba CapD inh -0.365.
Screening CCOC(=O)c1sc(Br)nc1C returned Ba CapD inh 0.715 and AID504770 0.95.
Screening N#Cc1c(-c2cccc(C(F)(F)F)c2)ccnc1Sc1cccc(Cl)c1 returned Ba CapD inh -0.465.
Screening O=C(O)c1ccc(Cn2cccn2)o1 returned Ba CapD inh 0.47 and AID504770 0.75.
Screening CCS(=O)(=O)n1nc(-c2ccccc2)cc1N returned Ba CapD inh -0.565 and AID504770 1.1.
`COc1cc(C2NC(=O)NC(C)=C2C(=O)OCc2ccc(C)cc2)cc(Br)c1O` (centres undefined) gave Ba CapD inh 0.46.
Screening Cc1cccc(OCC(=O)Nc2c(C(=O)Nc3cccc(F)c3)oc3ccccc23)c1 returned Ba CapD inh 0.375 and AID504770 0.05.
`CC(=O)NC1C(OCc2cccc(Br)c2)OC(COC(C)=O)C(OC(C)=O)C1OC(C)=O` (centres undefined) gave Ba CapD inh 0.145.
CCCCNC(=O)c1sc2nc(C)cc(C)c2c1-n1cccc1 was read as Ba CapD inh -0.135 and AID504770 -0.05.
For N[C@@H](C(=O)N[C@@H]1C(=O)N2C(C(=O)O)=C(Cl)CS[C@H]12)c1ccccc1 the results were Ba CapD inh -0.09&1.25 and AID504770 -0.95.
Screening CNc1nc(-c2cc(C)n(-c3cccc(C(F)(F)F)c3)c2C)cs1 returned AID504770 0.65.
For CC1CCOP(=S)(N(C)C)O1 (centres undefined) the results were AID504770 1.25.
For C=CCSC1=C(C#N)C(c2ccccc2)CC(=O)N1 (centres undefined) the results were Ba CapD inh -0.46 and AID504770 1.2.
`Cn1nnnc1SCC(=O)NC(=O)Nc1ccc2c(c1)OCCO2` gave AID504770 -0.45.
For COc1ccc(-c2nnc3sc(-c4ccc(Br)o4)nn23)cc1 the results were Ba CapD inh 0.025 and AID504770 -0.3.
Cc1nn(-c2ccccc2)c(C)c1/C=C/C(=O)OCC(=O)c1cccs1 was read as AID504770 -0.25.
Cn1cc(Cl)c(C2NN=C(SCC(=O)c3ccc(Cl)cc3)S2)n1 (centres undefined) was read as Ba CapD inh -1.47 and AID504770 -0.15.
Cc1ccc(-c2cc(C(=O)N3CCC(C(N)=O)CC3)c3ccccc3n2)cc1 was read as Ba CapD inh 31.7 and AID504770 0.25.
For Cc1cnc(NS(=O)(=O)c2cccc3nonc23)c(Br)c1 the results were Ba CapD inh -0.8 and AID504770 -0.55.
For Cc1ccc(Nc2nc(/N=C/N(C)C)n[nH]2)cc1C the results were Ba CapD inh -0.39 and AID504770 -0.4.
`COc1ccc(-c2nc(SCC(=O)CSc3n[nH]c(-c4ccc(OC)cc4)n3)n[nH]2)cc1` gave Ba CapD inh 0.425 and AID504770 0.55.
`O=C1NC(=Nc2ccc(O)cc2)S/C1=C\c1cccc(O)c1` gave Ba CapD inh -3.52 and AID504770 -0.15.
Screening COc1cc(C2C(C#N)=C(N)OC3=C2C(=O)CCC3)ccc1OC(=O)c1cccs1 (centres undefined) returned Ba CapD inh -0.695.
CC1=C(C(=O)Nc2ccc(C)cc2)C2(CCCCC2)OC1=O was read as Ba CapD inh -0.495 and AID504770 -1.4.
